PMP22 txn prim – PMP22 gene transcription modulation | Potency, µM (highest dose often 57.5 µM), without a hit: top-dose activity change, negative = inhibition, most hits filed as inhibitors | S16 Pmp22-F2sN Schwann cells (luciferase reporters placed in the Pmp22 gene), FLuc/NLuc coincidence luminescence, 24 h | AID 1508649 | 43,000 tested, 2% active; active = clear falling dose curves in both reporters; inconclusive = both reporters move, but less clearly or upward; inactive = either reporter flat; the % is the NLuc reporter signal; also: % is scaled to controls: 0 for no effect and ±100 for the full control effect; some results filed as inactive show a strong effect at the top dose
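S16(c9) Schwann cells with FLuc/NLuc coincidence reporter in the Pmp22 3' UTR; compounds pin-transferred, 24 h at 37C. Dual-luciferase read: FLuc first, then NLuc after Stop&Glo, each 10 min at room temperature.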
HTT promoter inh – inhibitors of huntingtin promoter activity. HEK293 HTT promoter firefly luciferase reporter (activity 0% = vehicle and -100% = no light), 24 h. Potency, µM (top dose mostly 57.5 µM), for the others: top-dose activity change, negative = inhibition, most hits filed as inhibitors. 48,000 tested, 0.93% active; active = well fitted inhibition curve with a large enough effect; inconclusive = small, poorly fitted or top-dose-only effect; inactive = no such curve, though single readings can be large or run the other way; also: nearly all actives have a fitted effect of over 50% in size
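Quantitative HTS used concentration series of up to 57.5 uM final on HEK293 luciferase reporter cells, 24 h at 37 degrees C. Readout was Dual-Glo firefly luminescence.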
Numbers without * were called inactive; ? = inconclusive; . = no result given; [ ] = remark or other dose. Potency is read from the fitted curve at half-maximal effect.

SMILES	PMP22 txn prim	HTT promoter inh
COc1ccc2c(c1)CC(C(=O)NCCN1CCN(c3cccc(Cl)c3)CC1)CO2 (stereo not drawn)	?	?
COc1ccc(COC(=O)C2=C(C)NC(=O)CC2c2cccc(Cl)c2Cl)cc1 (stereo not drawn)	-7.1%	-9.4%
COc1ccc(Cn2ccc3nc(C)c(C(=O)Nc4cc(C)cc(C)c4)cc3c2=O)cc1	-0.5%	-21.4%
CNC(=O)C1CCC(Cn2c(=O)c3sccc3n(CC(=O)N3CCCCC3C)c2=O)CC1 (stereo not drawn)	0.6%	-7.2%
COc1ccc(CCNC(=O)CCCn2c(=O)c3ccccc3n(CC(=O)Nc3cc(Cl)ccc3C)c2=O)cc1OC	?	-9.0%
CCOC(=O)c1c(C)[nH]c(C)c1S(=O)(=O)NCC(=O)NCc1ccccc1C	?	-14.8%
COc1ccc(NC(=O)Cc2coc3cc(C)cc(C)c23)c(OC)c1	-2.4%	-6.3%
CCCS(=O)(=O)NCCc1sc2nc(-c3ccc(F)cc3)nn2c1C	?	?
CCc1ccc(C2=NN(CCC(=O)NCCc3ccc(Cl)cc3)C(=O)CC2)cc1	2.6%	?
CCOC(=O)Cn1nc(C)c(NC(=O)COc2ccc(OC)cc2)c1C	1.6%	12.3%
Cc1ccc(CNC(=O)Cn2c(=O)n(Cc3ccc(F)cc3)c(=O)c3sc4ccccc4c32)cc1	-32.3%	-12.3%
c1ccc(N2CCN(c3ncnc4c3nc3n4CCCCC3)CC2)cc1	?	?
Cc1cccc(C(=O)Nc2ccc(S(=O)(=O)N3CCCCC3c3cccnc3)cc2)c1 (stereo not drawn)	?	?
CC(CNC(=O)c1csc2c1CCCCC2)c1ccccc1 (stereo not drawn)	-27.0%	20.5%
COc1ccccc1CNC(=O)c1cnc2sc(N3CCOCC3)nn2c1=O	-24.9%	9.0%
O=C(NCC(c1ccco1)S(=O)(=O)c1cccs1)c1ccccc1F (stereo not drawn)	6.0%	33.2%[activator]
O=C(Nc1cccs1)Nc1ccc(F)cc1F	-120.1%	-10.6%
COc1ccc(C(=O)Nc2ccc3oc(-c4ccc(F)cc4Cl)nc3c2)cc1	-19.8%	-2.8%
Cc1ccccc1Cn1c(=O)n(CCCCC(=O)NCCc2ccccc2)c(=O)c2ccccc21	?	1.5%
Cc1ccc(C(c2sc3nc(-c4ccco4)nn3c2O)N2CCC3(CC2)OCCO3)cc1 (stereo not drawn)	8.0%	18.0%
Clc1ccccc1CNc1nc2ccccc2c2nc(-c3ccccc3)nn12	1.7%	3.8%
COc1ccc(-c2nc(S(=O)(=O)c3ccccc3)c(N3CCC(C)CC3)o2)cc1	-26.7%	-3.0%
Cc1ccc(-c2nc(SCC(=O)NCC3CCCO3)c(-c3ccc(C)cc3)[nH]2)cc1 (stereo not drawn)	-0.6%	-7.6%
Cc1ccc2c(c1)N(CC(=O)Nc1ccccc1C(F)(F)F)C(=O)c1cccnc1O2	-12.3%	-18.0%
COCCCn1c(SCC(=O)Nc2ccc(OC)cc2)nc2c(sc3ccccc32)c1=O	-14.5%	-16.7%
Cc1ccc(C)c(N2C(=O)N(Cc3cccc(C(F)(F)F)c3)c3ccccc3S2(=O)=O)c1	-11.7%	-30.1%
Cc1cccc(-c2nc(SCc3cc(=O)c4cccc(F)c4[nH]3)n[nH]2)c1	?	?
Cc1cccc(C)c1OCCCn1c(CCNC(=O)C2CCCCC2)nc2ccccc21	?	?
Cc1ccc(C(=O)n2nc(C)c(S(=O)(=O)N3CCCCCC3)c2C)cc1C	-15.3%	-11.9%
COC(=O)c1ccc(NC(=O)Cn2c(=O)nc(-c3ccccc3)c3ccccc32)cc1	-21.2%	-35.5%
Fc1ccc(-c2cc(-c3nc(-c4ccccc4)no3)[nH]n2)cc1	3.5%	26.6%
COc1cccc(CSc2nc3n(n2)C(c2cccs2)C(C(=O)Nc2ccccc2C)=C(C)N3)c1 (stereo not drawn)	-2.7%	7.4%
COc1ccc(-c2cc(C(F)(F)F)nc(SCC(=O)Nc3ccc(O)cc3)n2)cc1OC	?	-3.6%
COc1ccccc1Nc1nn2c(=O)c3ccc(C(=O)Nc4ccc(F)cc4)cc3nc2s1	2.99µM*	-1.7%
CCC(C)NC(=O)C(=O)Nc1c2c(nn1-c1ccccc1)CS(=O)(=O)C2 (stereo not drawn)	-15.2%	-16.8%
O=C(CSc1nnc(NC(=O)NC2CCCCC2)s1)Nc1ccccc1F	19.3%	15.7%
Cc1ccc(OCC(=O)Nc2ccccc2C(=O)OCc2cc(=O)n3c(C)csc3n2)cc1	?	?
COc1ccc(NC(=O)Cn2c(SCc3cc(C)ccc3C)nc3ccncc32)c(OC)c1OC	?	-15.6%
Cn1c(SCc2ccc(Br)cc2)nc2c([nH]c3ccccc32)c1=O	-17.2%	-14.3%
O=C(Nc1ccc(F)cc1F)C1CCN(c2ncccn2)CC1	-6.0%	-5.7%
Cc1ccc2c(c1)N(C(=O)Nc1ccc(Br)cc1F)CCO2	-14.5%	-0.7%
COC(=O)c1ccccc1NC(=O)Cn1c(=O)n(-c2cccc(C(F)(F)F)c2)c(=O)c2c(C)c(C)sc21	?	-6.1%
O=C(CSc1n[nH]c(-c2ccc(F)cc2)n1)NCCc1ccccc1	14.5%	-7.0%
CCCCN(CC)C(=O)Nc1ccc2c(c1)N(C)C(=O)c1ccccc1S2	-1.0%	?
CNC(=O)c1ccc(N2C(=S)N(c3cnc(C#N)c(C(F)(F)F)c3)C(=O)C23CCC3)cc1F	.	?
Cc1ccc(CNc2ncnc3c2c(-c2ccccc2)cn3-c2cccc(Cl)c2)cc1	-7.8%	-18.0%
CC(C)Cc1ccc(CC(=O)O)cc1	.	6.9%
COc1ccc(NC(=O)Cn2ncc3c2-c2ccccc2OC3)cc1Cl	-26.9%	?
Cn1c(SCc2cc(=O)c3cc(Cl)ccc3[nH]2)nnc1-c1ccccc1	?	-25.1%
COc1ccc(C(CNC(=O)COc2ccc(C)cc2)N2CCCCC2)cc1 (stereo not drawn)	6.0%	-40.8%
Cc1csc2nc(COC(=O)c3cccc(NC(=O)COc4ccccc4Cl)c3)cc(=O)n12	-4.9%	?
Cc1cccc(N(C)S(=O)(=O)c2ccc(-c3cc(C)no3)s2)c1	7.61µM*	?
Cc1ccc(CNc2nc3c(S(=O)(=O)c4ccccc4)nnn3c3ccsc23)cc1	-5.3%	-4.5%
CCc1ccccc1NC(=O)C(C)n1nc(-c2ccc(C)c(C)c2)ccc1=O (stereo not drawn)	10.6%	?
Cc1nn2c(-c3cccc(NC(=O)c4ccc(Cl)cc4)c3)nnc2c2ccccc12	?	0.9%
COc1ccc(C(=O)CSc2nc3cc(C(=O)NC4CCCC4)ccc3c(=O)n2CC2CCCO2)cc1 (stereo not drawn)	?	-7.6%
COc1ccc(OC)c(CCNC(=O)Cn2nc(C)n3c(cc4sccc43)c2=O)c1	-2.7%	3.8%
Cc1ccc2oc(=O)n(CCNC(=O)Nc3ccc(C)c(F)c3)c2c1	-5.2%	-6.9%
COc1cccc(-c2oc3ccc(C)cc3c(=O)c2O)c1	?	51.8%[activator]
O=C(Cn1c(-c2cccs2)cc2cc(F)ccc21)N1CCN(c2cccc(Cl)c2)CC1	8.8%	-24.3%
Going on with the list:
SMILES	PMP22 txn prim	HTT promoter inh
Cc1ccc(C)c(NC(=O)Cn2c(=O)n(Cc3ccc4c(c3)OCO4)c(=O)c3ccccc32)c1	?	-9.5%
CCC(=O)N1c2ccc(S(=O)(=O)CCC(=O)NCc3ccc(OC)cc3)cc2CC1C (stereo not drawn)	-9.4%	-17.2%
COc1ccc(CNC(=O)CS(=O)Cc2nc(-c3ccc(OC)c(OC)c3)oc2C)cc1 (stereo not drawn)	-10.2%	7.3%
COc1ccccc1N1CCN(S(=O)(=O)c2ccc3c(c2)CCCN3C(C)=O)CC1	-22.9%	-27.0%
O=C(COC(=O)c1cccc(NC(=O)c2ccc(Br)cc2)c1)c1ccc(Cl)cc1	-81.8%	?
COCCN(CCOC)c1ncnc2c1c(-c1ccccc1)cn2-c1ccc(C)c(Cl)c1	-4.1%	?
CCOc1ccc(S(=O)(=O)N(CC(=O)NCCSc2ccccc2)c2ccccc2)cc1	-12.2%	-9.6%
COc1cc(OC)c(NC(=O)CCc2c(C)nc3c4c(C)cc(C)nc4nn3c2C)cc1Cl	-8.4%	-0.9%
C[C@H]1[C@H](NC(=O)C(=NOC(C)(C)C(=O)O)c2csc(N)n2)C(=O)N1S(=O)(=O)O	.	-2.1%
CC1(C)Cc2c(-c3ccccc3)c(-c3ccc(Cl)cc3)c(CC(=O)O)n2C1	.	-21.8%
COC(=O)Nc1ccc(-c2nc(N3CCOCC3)c3cnn(C4CCN(Cc5cccnc5)CC4)c3n2)cc1	.	?
N#C/C(=C\c1cc(Br)c(O)c(Br)c1)c1nc2ccccc2c(=O)[nH]1	-12.1%	-15.5%
CCCCN(CC)C(=O)CSc1nc2n[nH]c(C)c2c(=N)n1-c1ccc(CC)cc1	16.8µM*	?
COc1ccccc1N1CCN(c2cc(C)nc3nc(-c4ccc(Cl)cc4)nn23)CC1	?	-20.6%
CCOc1ccc(CCNC(=O)c2cc3c(=O)n(C)c4ccccc4c3n2C)cc1	?	-5.8%
CCC(Cc1ccccc1)NC(=O)CN1C(=O)COc2ccc(S(=O)(=O)N3CCCCCC3)cc21 (stereo not drawn)	?	-18.8%
COc1cccc2cc(C(=O)Nc3ccc(F)c(F)c3)c(=O)oc12	-6.3%	-8.4%
COc1ccc(-n2nc(C(=O)NCCc3ccc(OC)c(OC)c3)c3c4ccccc4n(C)c3c2=O)cc1	-23.1%	-7.5%
COc1cc(NC(=O)C(CC(C)C)NS(=O)(=O)c2ccc3c(c2)CCN3C(C)=O)cc(OC)c1 (stereo not drawn)	5.2%	-13.8%
CC(=O)c1ccc(NC(=O)CCc2c(C)nc3c(c2C)c(=O)n(C)c(=O)n3C)cc1	-1.1%	8.6%

Arranged by the number under HTT promoter inh (low to high): some entries from above
| canonical_smiles | HTT promoter inh |
| --- | --- |
| COc1ccccc1N1CCN(S(=O)(=O)c2ccc3c(c2)CCCN3C(C)=O)CC1 | -27.0% |
| CCC(=O)N1c2ccc(S(=O)(=O)CCC(=O)NCc3ccc(OC)cc3)cc2CC1C (stereo not drawn) | -17.2% |
| COc1ccc(CNC(=O)CS(=O)Cc2nc(-c3ccc(OC)c(OC)c3)oc2C)cc1 (stereo not drawn) | 7.3% |

Additional structures follow.
SMILES	PMP22 txn prim	HTT promoter inh
COc1ccc(OC)c(CNS(=O)(=O)c2cc(-c3onc(C)c3C)ccc2C)c1	-9.9%	-17.0%
O=C(COc1ccc(Cl)cc1Cl)Nc1cccc2cccnc12	-16.0%	6.4%
CCc1ccc(C2c3c(oc4ccc(F)cc4c3=O)C(=O)N2CCc2ccc(OC)cc2)cc1 (stereo not drawn)	?	-11.6%
Cc1ccccc1NC(=O)CCn1nc(-c2ccccc2)c2ccccc2c1=O	-4.9%	-29.8%
CC(C)(C)c1ccc(Oc2nc3ccccn3c(=O)c2/C=C(\C#N)c2nc3ccccc3[nH]2)cc1	3.4%	-4.9%[11.5 µM]
COc1ccc(CNC(=O)Cn2c(=O)oc3cc(S(=O)(=O)N4CCCC4)ccc32)cc1	-29.7%	-16.9%
Cc1ccccc1C(=O)Nc1nc2c(s1)CC(C(C)(C)C)CC2 (stereo not drawn)	-30.0%	5.9%
CCc1ccccc1NC(=O)CCCSc1nc(-c2ccco2)cc(C(F)(F)F)n1	-0.4%	-4.5%
COc1ccc(OCC(=O)Nc2ccc(C(=O)OCc3cc(=O)n4nc(C)sc4n3)cc2)cc1	?	-20.9%
CCCCC(=O)Nc1ccc(OCc2cc(=O)n3c(C)csc3n2)cc1	-34.2%	5.7%
O=C(CSc1nc2cc(C(=O)NC3CCCC3)ccc2c(=O)n1CC1CCCO1)c1cccc(Cl)c1 (stereo not drawn)	14.1µM*	-21.7%
COc1ccc(N2CCN(S(=O)(=O)c3c(C)nc4sc(C)cn4c3=O)CC2)cc1	-4.7%	3.6%
Cc1ccc(S(=O)(=O)c2nnn3c2nc(N2CCOCC2)c2sccc23)cc1C	13.4µM*	-8.9%
CCN(CC)C(=O)Cn1c(=O)n(CCCCCC(=O)NCc2ccc(C)cc2)c(=O)c2sccc21	-5.2%	-13.9%
CC(C)CCNC(=O)c1cc(Sc2ccc(F)cc2F)nc2ccccc12	-14.2%	?
COc1ccc(CCn2c3c(c(=O)[nH]c2=O)C(NC(=O)c2ccc(C(C)(C)C)cc2)(C(F)(F)F)C(=O)N3)cc1OC (stereo not drawn)	6.4%	-18.5%
Cc1cc(C)c2c(-n3cccc3)c(C(=O)NCc3cccc(F)c3)sc2n1	-26.1%	-11.3%
Cc1ccc2nc(/C(C#N)=C/c3ccc(-c4ccc(F)cc4F)o3)[nH]c2c1	-37.7%	9.8%
COCCCNc1nc2c(c(=O)n(Cc3ccccc3)c(=O)n2C)n1C	-21.8%	-5.9%
Cc1ccccc1NC(=O)c1cc2ccccc2o1	5.8%	81.9%[activator]
Cc1sc2ncn(CC(=O)Nc3ccc(C(C)C)cc3)c(=O)c2c1S(=O)(=O)N1CCN(c2ncccn2)CC1	?	-19.6%

An excerpt from above in order of length of the SMILES, largest number first.
SMILES	PMP22 txn prim	HTT promoter inh
COC(=O)Nc1ccc(-c2nc(N3CCOCC3)c3cnn(C4CCN(Cc5cccnc5)CC4)c3n2)cc1	.	?
CCc1ccc(C2c3c(oc4ccc(F)cc4c3=O)C(=O)N2CCc2ccc(OC)cc2)cc1 (stereo not drawn)	?	-11.6%
COc1ccc(-c2nc(S(=O)(=O)c3ccccc3)c(N3CCC(C)CC3)o2)cc1	-26.7%	-3.0%

Source: PubChem BioAssay
